TRPML1 blocker – human mucolipin-1 channel inhibition | activity change, negative = inhibition, % (concentration not given with the values) | Q9GZU1 | 390,000 compounds, 0.02% hits | TRPML1-inducible cells, Ca2+ dye fluorescence, FDSS; active compounds read low; inhibition of EC80 agonist-evoked calcium signal | AID 624415; in the data active means activity change below about -50%; inconclusive means about -30% to -50%; inactive means above about -30%;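 further: stimulus is agonist 54-4 at its EC80 concentration; on the % scale 0 is the no-effect control and ±100 the full control effect; the text of the record puts the active cut at -80%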
Target sequence (Q9GZU1 whole entry, looked up): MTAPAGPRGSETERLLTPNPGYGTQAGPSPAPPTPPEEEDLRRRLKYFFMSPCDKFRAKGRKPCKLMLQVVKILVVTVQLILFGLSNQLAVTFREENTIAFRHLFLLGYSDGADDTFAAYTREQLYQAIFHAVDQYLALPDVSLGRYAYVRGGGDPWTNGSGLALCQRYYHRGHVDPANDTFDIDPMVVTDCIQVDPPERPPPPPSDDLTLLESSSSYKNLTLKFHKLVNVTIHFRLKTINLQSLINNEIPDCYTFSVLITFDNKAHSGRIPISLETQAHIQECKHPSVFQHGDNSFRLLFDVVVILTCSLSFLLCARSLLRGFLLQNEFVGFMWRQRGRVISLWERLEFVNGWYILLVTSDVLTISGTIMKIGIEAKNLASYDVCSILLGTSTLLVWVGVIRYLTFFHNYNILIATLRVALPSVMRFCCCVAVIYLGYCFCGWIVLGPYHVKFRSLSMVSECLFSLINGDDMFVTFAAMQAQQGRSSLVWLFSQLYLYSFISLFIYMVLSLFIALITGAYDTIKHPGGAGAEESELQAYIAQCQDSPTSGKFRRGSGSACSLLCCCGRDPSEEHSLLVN
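Calcium fluorescence in TRPML1-DL cells induced overnight with Tet: a 110 s read after compound pin addition, then a 110 s antagonist read after challenge with 54-4 at 4 uM final (EC80).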
gsp agonist – activates gsp, the McCune-Albright syndrome mutation; 340,000 compounds, 0.13% hits; gsp mutant cells, cAMP HTRF, 30 min; control for the full effect not named in the record; AID 624287; Potency, µM (top dose mostly 76.9 µM), for inactives: at the highest dose activation (cAMP increase), actives largely listed as activators; active = well fitted activation curve with a large enough effect; inconclusive = small, poorly fitted or top-dose-only effect, or another doubt; inactive = no such curve, though single readings can be large or run the other way; cell line not stated here;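 further: phosphodiesterase inhibitor Ro 20-1724 added with compounds to block cAMP breakdown; potency means the concentration at half of the fitted maximal effect; nearly all actives have a fitted effect of over 60% in size; about a fifth of the inactives were tested at one dose only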
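Cells stably selected in G418 were plated at 2000/well, grown 16-24 hr, then given compounds in DMSO with the PDE inhibitor […] (300 uM solution added) for 30 min at 37C; cAMP was read by HTRF.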
TRPML1 agonist – human mucolipin-1 channel agonism; AID 624414; TRPML1-expressing cells, Ca2+ dye fluorescence, FDSS; host cell line not named in the record; reference of the full effect not given here; activation, % (test concentration not listed); Q9GZU1; 410,000 compounds, 0.12% hits; in the data active = activation above about 50%; inconclusive = about 30% to 50%; inactive = below about 30%; further: 0% is about no effect; the text of the record puts the active cut at 80%
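TRPML1-DL cells, Tet-induced overnight (~16 h, 37 degrees C), loaded 45-90 min at room temperature with Ca8 no-wash calcium dye plus quencher. FDSS fluorescence: 10 s baseline, compound pin-transfer, 110 s agonist read, then EC80 54-4 (4uM final) and 110 s antagonist read.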
ClpP mod – qHTS Assay for Activators of ClpP; ATP-dependent Clp protease proteolytic subunit (Bacillus subtilis (strain 168)), P80244; purified B. subtilis ClpP, FRET peptide cleavage, 20 min; Potency, µM (top dose mostly 57.5 µM), for the others: at the top dose activity change, negative = active; 340,000 compounds, 1.9% hits; active = well fitted falling curve with a large enough effect; inconclusive = small, poorly fitted or top-dose-only effect; inactive = no such curve, though single readings can be large or run the other way; further: potency means the concentration at half of the fitted maximal effect; the source files actives as falling curves though it sought activators and does not explain the sign; nearly all actives have a fitted effect of over 65% in size; many hits overshoot -100%
Target sequence (P80244 whole entry, looked up): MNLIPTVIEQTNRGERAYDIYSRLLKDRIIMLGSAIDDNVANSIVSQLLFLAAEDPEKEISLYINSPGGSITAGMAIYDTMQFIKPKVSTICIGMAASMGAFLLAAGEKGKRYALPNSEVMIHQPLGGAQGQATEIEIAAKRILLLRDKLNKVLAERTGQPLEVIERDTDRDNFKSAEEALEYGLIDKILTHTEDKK
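FRET quenching reversal measured ClpP activation: 10 microg/mL B. subtilis ClpP at pH 8 with the FRET-FV decapeptide, read at 430 nm after 320 nm excitation. The 20-min minus 0-min signal was scaled between DMSO/no-enzyme wells and ADEP (5.8 microM final).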
gsp antagonist – antagonists of gsp mutant (McCune-Albright syndrome); gsp-mutant cells, cAMP HTRF, 30 min; control for the full effect not named in the record; Potency, µM (series often up to 76.9 µM), inactives show at the top dose activity change, negative = inhibition, hits mostly inhibitors; 340,000 compounds, 0.4% hits; AID 624288; active = falling curve of any shape with a large fitted effect; inconclusive = falling curve, mostly with a smaller effect; inactive = flat or rising curve; cell line not stated here;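 further: intracellular cAMP measured with PDE inhibitor Ro 20-1724 present during compound exposure; potency means the concentration at half of the fitted maximal effect; on the % scale 0 is the no-effect control and ±100 the full control effect; nearly all actives have a fitted effect of over 65% in size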
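HTRF cAMP measurement after 30 min RT detection following 30 min, 37C compound treatment alongside […] (added as 300 uM solution) in G418-selected cells seeded at 2000/well and grown 16–24 h.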
Menin-MLL FL inh – inhibitors of human menin-MLL interaction, wild-type MLL peptide | 290,000 tested, under 10 active | Fluorescence polarization, fluorescein-MLL peptide displacement from menin | AID 1766 | FP activity change, % at 61.4 µM; inconclusive = falling polarisation curve, or a change in total fluorescence; inactive = total fluorescence flat and polarisation flat or rising; no compound was filed as active; the % refers to the polarisation; negative = inhibition;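 further: % of control where 0% means no effect; inhibitors lower the polarisation; unlabelled MLL peptide was the positive control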
The depositor's hits bear a star; u = inconclusive; x = not tested or not shown; & = joins results of further samples; [ ] = remark or other dose. A portion of the library (hit frequency here may not be typical).

[1] CCOP(=O)(OCC)C(NC(=O)c1cccc2ccccc12)C(Cl)(Cl)Cl (configuration not stated)
[2] Fc1cccc(F)c1CN1CCN(Cc2c(F)cccc2F)CC1
[3] c1ccc(CN2CCNCC2)nc1
[4] C=CCCC1(CC(C)C)C(=O)NC(=S)NC1=O
[5] O=C1NC(=O)N(Cc2ccc(F)cc2)C(=O)/C1=C\c1ccc(N2CCCC2)cc1
[6] Cc1oc(-c2ccccc2F)nc1CS(=O)CC(=O)N1CCC2(CC1)OCCO2 (configuration not stated)
[7] C=COCCn1c(C)c(C(=O)OCC)c2cc(O)ccc21
[8] O=C(c1ccc(N2CCCCC2)c([N+](=O)[O-])c1)N1CCC2(CC1)OCCO2
Screen / compound no. | 1 | 2 | 3 | 4 | 5 | 6 | 7 | 8
TRPML1 blocker | -13 | -6 | u | 9 | 5 | 4 | 16 | -15
gsp agonist | 10% | -23% | -64%[inhibitor] | -2% | -6%[15.4 µM] | -1% | 16% | 9%[15.4 µM]
TRPML1 agonist | -0.1 | 1.1 | -0.4 | 0.4 | -0.3 | 0.1 | 0.3 | 0.5
ClpP mod | u | -3.6% | -3.7% | -15% | -4.3% | -16% | -1.1% | -4.1%
gsp antagonist | 11% | 6% | 7% | -6% | 3% | -18% | 14% | -3%
Menin-MLL FL inh | 6.5 | 3.5 | -9.1 | x | u | 0.6 | -1.4 | 0.0

[9] CCOC(=O)C1(CCc2ccccc2)CCN(Cc2cccc3cnccc23)CC1
[10] C=CCOC(=O)COc1cc(C)cc2oc(=O)c3c(c12)CCC3
[11] ON1C2CCCCC2N(O)C1c1ccccc1F (configuration not stated)
[12] C=CCn1c(O)c(C=NCCCOc2ccc(CC)cc2)c(=O)[nH]c1=S
[13] C1CC2OC2CC1C1CO1 (configuration not stated)
[14] CN(C)C(Cc1ccccc1)C(=O)c1c[nH]c2ccccc12 (configuration not stated)
[15] COc1cccc(C2SCC(=O)Nc3c2c(C)nn3-c2ccc(C)c(Cl)c2)c1OC (configuration not stated)
[16] COC(=O)C1=C(c2cc3ccccc3o2)C[C@@H]2CC[C@H]1N2C(=O)NC1CCCCC1
Screen / compound no. | 9 | 10 | 11 | 12 | 13 | 14 | 15 | 16
TRPML1 blocker | 25 | 24 | -7 | -6 | 3 | -16 | -20 | 11
gsp agonist | 1%[15.4 µM] | u | u | u | x | u | x | x
TRPML1 agonist | 0.4 | 3.8 | -0.6 | -0.3 | -0.5 | 0.3 | 0.8 | 0.8
ClpP mod | x | u | -1.7% | -3.3% | 0.5% | 0.1% | -8.9% | 0.3%
gsp antagonist | -22% | -1% | -8% | 16% | 5% | -8% | x | -12%
Menin-MLL FL inh | -0.7 | -0.8 | 2.6 | u | x | -1.6 | x | x

[17] Cc1cc(C)c2c(c1)-c1cc(C)nn1C(c1cccnc1)N2 (configuration not stated)
[18] CC(C(=O)c1ccccc1)N1C(=O)c2ccccc2C1=O (configuration not stated)
[19] Cc1cccc(CCNCc2cc3cc(C)cc(C)c3[nH]c2=O)c1
[20] CN(C)P(=S)(Nc1ccccc1)C(Cl)(Cl)Cl (configuration not stated)
[21] CN1C[C@H](CO)C[C@@H]2c3cccc4[nH]cc(c34)C[C@H]21
[22] O=c1c2ccccc2[se]n1-c1ccccc1
[23] CCOC(=O)c1c(-n2c(C)cc(/C=C3/C(=O)NC(=O)N(CC)C3=O)c2C)sc2c1CCCC2
[24] O=C(Nc1cccc2ccccc12)N1CCC2(CC1)OCCO2
Screen / compound no. | 17 | 18 | 19 | 20 | 21 | 22 | 23 | 24
TRPML1 blocker | -1 | 5 | 1 | 2 | -13 | 9 | 0 | 8
gsp agonist | 7% | 9%[15.4 µM] | -14% | 19%[15.4 µM] | -21% | x | 25% | 26%
TRPML1 agonist | 0.3 | -0.3 | 0.8 | 3.7 | 0.5 | 5.6&1.9 | -1.2 | -0.6
ClpP mod | -3.6% | 1.2% | -28% | x | -2.2% | -0.6%&0.1% | 0.4% | u
gsp antagonist | -1% | 11% | 7% | 4% | 0% | 0% | -2% | 8%
Menin-MLL FL inh | -2.9 | 1.2 | -3.1 | -1.7 | -7.7 | -1.4 | x | -0.4

[25] O=C(N/N=C/C1C(=O)NC(=S)N(c2ccccc2)C1=O)c1cc(Br)c(O)c(Br)c1 (configuration not stated)
[26] CCOc1ccc(N2C(=O)NC(=O)/C(=C\c3ccc(N4CCCCC4)o3)C2=O)cc1
[27] COC(=O)C1=C(c2ccc(F)cc2F)C[C@@H]2CC[C@H]1N2C(=O)NCC1CC1
[28] O[C@H]1[C@H](O)[C@@H](O)CN2CC[C@H](O)[C@H]12
[29] N#CC(C#N)=Cc1ccc(C=C(C#N)C#N)cc1
[30] CN(C)C(=O)C(CCN1CCC(O)(c2ccc(Cl)cc2)CC1)(c1ccccc1)c1ccccc1
[31] CS(=O)(=O)c1ccc(C2=C(CNC(=O)c3nccs3)[C@H]3CC[C@@H](C2)N3Cc2ccccc2)cc1
[32] COc1cc(Br)c(CNCCc2ccc3c(c2)OCO3)cc1OC
Screen / compound no. | 25 | 26 | 27 | 28 | 29 | 30 | 31 | 32
TRPML1 blocker | 0 | -16 | 15 | 31 | 14 | -8 | 0 | 10
gsp agonist | -6%[15.4 µM] | 9% | -23% | x | -16% | x | 5% | -10%
TRPML1 agonist | -0.7 | 6.0 | -0.2 | -0.4 | 4.9 | -0.5 | -0.3 | -0.1
ClpP mod | x | -0.5% | -1.0% | -2.3% | x | -4.6% | -0.1% | -2.3%
gsp antagonist | -9% | 8% | 9% | 8% | -13% | -3% | x | -3%
Menin-MLL FL inh | 7.8 | 3.4 | x | 0.1&-0.8 | u | u | x | -1.2

[33] O=C(C1CCN(S(=O)(=O)c2ccccc2)CC1)N1CCC2(CC1)OCCO2
[34] CCC(C(=O)Nc1ccc(Cl)cc1)N1CCCC1=O (configuration not stated)
[35] CCN(CC)CCNCc1nc2ccccc2c(=O)n1-c1ccc(F)cc1
[36] O=C(c1ccc(CNS(=O)(=O)c2ccccc2)cc1)N1CCC2(CC1)OCCO2
[37] Nc1ccccc1C(=O)OCc1ccc([N+](=O)[O-])cc1
[38] Cc1c(C)c2ccc(OCC(=O)N3C[C@H]4C[C@@H](C3)c3cccc(=O)n3C4)c(C)c2oc1=O
[39] Oc1ccc2c3c1O[C@H]1[C@@H](O)CC[C@@]4(O)C(C2)N(CC2CCC2)CCC314 (some centres not stated)
Screen / compound no. | 33 | 34 | 35 | 36 | 37 | 38 | 39
TRPML1 blocker | -12 | 11 | -8 | 1 | -11 | x | x
gsp agonist | 5% | -22% | -1% | 16% | -1%[15.4 µM] | x | x
TRPML1 agonist | 0.2 | 1.5 | -0.2 | 0.4 | 1.2 | x | 0.7
ClpP mod | 0.8% | 1.3% | -11% | -3.4% | x | 4.3% | 0.3%
gsp antagonist | 6% | 2% | 4% | -5% | -6% | -8% | x
Menin-MLL FL inh | 2.3 | x | x | -3.4 | 2.1 | -3.9 | 1.2&-1.5

Filtered by structure, the compounds so far containing a halogen
[1] CCOP(=O)(OCC)C(NC(=O)c1cccc2ccccc12)C(Cl)(Cl)Cl (configuration not stated)
[2] Fc1cccc(F)c1CN1CCN(Cc2c(F)cccc2F)CC1
[5] O=C1NC(=O)N(Cc2ccc(F)cc2)C(=O)/C1=C\c1ccc(N2CCCC2)cc1
[6] Cc1oc(-c2ccccc2F)nc1CS(=O)CC(=O)N1CCC2(CC1)OCCO2 (configuration not stated)
[11] ON1C2CCCCC2N(O)C1c1ccccc1F (configuration not stated)
[15] COc1cccc(C2SCC(=O)Nc3c2c(C)nn3-c2ccc(C)c(Cl)c2)c1OC (configuration not stated)
[20] CN(C)P(=S)(Nc1ccccc1)C(Cl)(Cl)Cl (configuration not stated)
[25] O=C(N/N=C/C1C(=O)NC(=S)N(c2ccccc2)C1=O)c1cc(Br)c(O)c(Br)c1 (configuration not stated)
[27] COC(=O)C1=C(c2ccc(F)cc2F)C[C@@H]2CC[C@H]1N2C(=O)NCC1CC1
[30] CN(C)C(=O)C(CCN1CCC(O)(c2ccc(Cl)cc2)CC1)(c1ccccc1)c1ccccc1
Screen / compound no. | 1 | 2 | 5 | 6 | 11 | 15 | 20 | 25 | 27 | 30
TRPML1 blocker | -13 | -6 | 5 | 4 | -7 | -20 | 2 | 0 | 15 | -8
gsp agonist | 10% | -23% | -6%[15.4 µM] | -1% | u | x | 19%[15.4 µM] | -6%[15.4 µM] | -23% | x
TRPML1 agonist | -0.1 | 1.1 | -0.3 | 0.1 | -0.6 | 0.8 | 3.7 | -0.7 | -0.2 | -0.5
ClpP mod | u | -3.6% | -4.3% | -16% | -1.7% | -8.9% | x | x | -1.0% | -4.6%
gsp antagonist | 11% | 6% | 3% | -18% | -8% | x | 4% | -9% | 9% | -3%
Menin-MLL FL inh | 6.5 | 3.5 | u | 0.6 | 2.6 | x | -1.7 | 7.8 | x | u

[32] COc1cc(Br)c(CNCCc2ccc3c(c2)OCO3)cc1OC
[34] CCC(C(=O)Nc1ccc(Cl)cc1)N1CCCC1=O (configuration not stated)
[35] CCN(CC)CCNCc1nc2ccccc2c(=O)n1-c1ccc(F)cc1
Screen / compound no. | 32 | 34 | 35
TRPML1 blocker | 10 | 11 | -8
gsp agonist | -10% | -22% | -1%
TRPML1 agonist | -0.1 | 1.5 | -0.2
ClpP mod | -2.3% | 1.3% | -11%
gsp antagonist | -3% | 2% | 4%
Menin-MLL FL inh | -1.2 | x | x
